hNpr1 antagonist: human Npr1 receptor antagonism; P16066; HEK293 hNpr1 GloSensor cGMP, ANP-stimulated luminescence; Potency, µM (highest dose often 46.3 µM), for the others: at the top dose activity change, negative = inhibition, most hits filed as inhibitors; 76,000 compounds, 1.6% hits; AID 1347048; active = well fitted inhibition curve with a large enough effect; inconclusive = small, poorly fitted or top-dose-only effect; inactive = no such curve, though single readings can be large or run the other way;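 further: nearly all actives have a fitted effect of over 60% in size; nearly all hits also lower the signal before the agonist is added; a reference antagonist and vehicle were the controls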
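Compound pre-incubated 30 min at room temperature on GloSensor-loaded HEK293 cells stably carrying hNpr1 and the pGS-40F cGMP biosensor. Stimulation uses hNppA at 0.1 nM final; luminescence is taken at baseline and 20 min post-agonist.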
Numbers without * were called inactive; ? = inconclusive; [ ] = dose if it differs, or a comment. On the % scale 0 is the no-effect control and ±100 the full control effect; potency means the concentration at half of the fitted maximal effect. A portion of the library, so the mix of outcomes need not match the whole.

A first look:
mol	hNpr1 antagonist
c1cc2c(cc1-c1noc(-c3nc(-c4ccc5c(c4)OCO5)no3)n1)OCO2	-9.2%
Cn1cc(CN2CCOC[C@H](Oc3cnccn3)C2)cn1	-1.2%[70.6 µM]
CC(=O)Oc1c(-c2ccc(NC(=O)C3CC3)cc2)c(-c2ccc3c(c2)OCO3)nn1-c1cccc(C)c1	-5.4%
CN(C)c1cccc(C(=O)N2CCCC(n3cc(-c4nc(C5CC5)no4)nn3)C2)c1 (stereo unspecified)	-21.1%
COCCNC(=O)c1cc(-c2ccccc2Oc2ccccc2)cc2ncn(C)c12	-11.0%[70.6 µM]
CCNC(=O)N[C@H]1C[C@@H](Cc2cc(CN3CCCCC3)on2)C1(C)C	0.8%[70.6 µM]

This part in full, repeating the preview:
mol	hNpr1 antagonist
c1cc2c(cc1-c1noc(-c3nc(-c4ccc5c(c4)OCO5)no3)n1)OCO2	-9.2%
Cn1cc(CN2CCOC[C@H](Oc3cnccn3)C2)cn1	-1.2%[70.6 µM]
CC(=O)Oc1c(-c2ccc(NC(=O)C3CC3)cc2)c(-c2ccc3c(c2)OCO3)nn1-c1cccc(C)c1	-5.4%
CN(C)c1cccc(C(=O)N2CCCC(n3cc(-c4nc(C5CC5)no4)nn3)C2)c1 (stereo unspecified)	-21.1%
COCCNC(=O)c1cc(-c2ccccc2Oc2ccccc2)cc2ncn(C)c12	-11.0%[70.6 µM]
CCNC(=O)N[C@H]1C[C@@H](Cc2cc(CN3CCCCC3)on2)C1(C)C	0.8%[70.6 µM]
O=C(CN1C(=O)NC2(CCCCC2)C1=O)NCCc1cccs1	2.3%
COc1ccccc1NC(=O)Nc1ccc(-c2nnc3n2CCCC3)cc1	5.4%
NC(=O)C1(N2CCCCC2)CCN(Cc2cc3n(n2)CCNC3)CC1	6.4%
CC(C)c1nccn1CCCNC(=O)c1ccc(-c2cccc(F)c2)nc1	-0.8%
OCCC1CN(c2nccc(-c3ccccn3)n2)CCN1Cc1ccoc1 (stereo unspecified)	4.9%
O=C(c1cccc(Cl)c1)N1CCc2nc(-c3ccccc3)nc(-c3ccc(Cl)cc3)c2C1	-11.3%
COc1ccc(CN[C@H]2[C@H](O)[C@@H](N3CCCCC3)[C@@H]3OC[C@H]2O3)cc1	4.8%[70.6 µM]
O=C(c1ccsc1)N1CCCC2(C1)Nc1cccnc1NC2=NCc1ccccc1 (stereo unspecified)	-13.0%
O=C(NCc1ccccc1)c1ccc(CN2C(=O)NC3(CCOCC3)C2=O)cc1	9.7%
COCCNc1ncnc2c1CN(c1ccccc1F)C(=O)CN2C	9.7%
COCCNC(=O)[C@@H]1C[C@@H](O)CN1C1CCN(C(=O)CC(C)C)CC1	-0.6%
Cc1cc2nc3n(c(=O)c2n1CC(=O)NCCCc1ccccc1)CCCCC3	-16.8%
CCCCNC(=O)c1cccc2c1CCN2S(=O)(=O)c1ccc(C)cc1	?
CCn1cc(S(=O)(=O)NCC2Cn3cccc3C(=O)N2Cc2ccccc2)cn1 (stereo unspecified)	0.2%
O=C(NCc1ccccc1)N1CCCC(c2nc(CCOc3ccc(F)cc3)no2)C1 (stereo unspecified)	-28.1%
CCCNC(=O)c1ccc(CN2C(=O)NC3(CCS(=O)(=O)CC3)C2=O)cc1	1.8%
CC1=NS(=O)(=O)N(C)C=C1C(=O)OCc1nc(-c2ccccc2C)no1	0.0%
O=[S+]1([O-])NC2(CCN(Cc3ccc(F)cc3)CC2)CNc2ccccc21	?
COCc1nnc2n1CCC(NC(=O)Cn1nc(C(F)(F)F)cc1C)CC2 (stereo unspecified)	4.0%
CC(C)NC(=O)N(C1CC1)C1CCOC2(CCN(C(=O)c3n[nH]c4ccccc34)CC2)C1 (stereo unspecified)	-0.4%
Cn1nc(C2CCN(C(=O)NCc3ccccc3)CC2)c2c1CCOC2	0.1%
Nc1cncc(-c2nccc(N3CCC(O)CC3)n2)c1	-2.8%
O=C(C1CCCC1)N1CCC(c2noc(-c3ccccc3)n2)C1 (stereo unspecified)	-27.9%
CCN(CC)C(=O)C[C@@H]1CCNC[C@@H]1Cc1cc(C(=O)OC)on1	0.9%[70.6 µM]

Three entries from above, ordered by the value under hNpr1 antagonist, low to high:
compound | hNpr1 antagonist
CC(=O)Oc1c(-c2ccc(NC(=O)C3CC3)cc2)c(-c2ccc3c(c2)OCO3)nn1-c1cccc(C)c1 | -5.4%
O=C(CN1C(=O)NC2(CCCCC2)C1=O)NCCc1cccs1 | 2.3%
COc1ccccc1NC(=O)Nc1ccc(-c2nnc3n2CCCC3)cc1 | 5.4%

Continued:
mol	hNpr1 antagonist
O=C(Nc1ccccc1)c1cc2n(n1)CCN(C(=O)CCn1cnnn1)C2	6.0%
CCc1nc(-c2c3n(c(=O)n(CC(=O)Nc4ccc(C)c(F)c4)c2=O)CCCCC3)no1	6.8%
COc1ccc(-c2noc(CC3CCN(C(=O)c4cc(Cl)ccc4F)CC3)n2)cc1	7.08µM*
OC[C@@H]1CNC[C@H]1c1nc(-c2ccncc2)no1	6.4%
Cc1ccc(-c2ccc3nnc(CNC(=O)C4CCCCC4)n3n2)cc1C	1.2%
Cc1c(C(=O)N2CCC3(CC2)Nc2ccccc2NC3=O)cnc2ccnn12	4.2%
Cc1ccc(C2Cn3nnc(C(=O)N4CCN(C(=O)c5ccsc5)CC4)c3CO2)cc1 (stereo unspecified)	-12.0%
Cc1cccc(C(=O)N2CCCC(C(=O)N3CCN(c4ccccn4)CC3)CCNC(=O)CC2)c1 (stereo unspecified)	1.8%
CS(=O)(=O)N1CCCC1c1noc(CCC(=O)NCCN2CCCCC2)n1 (stereo unspecified)	1.1%
COC(=O)[C@@H]1Cc2c([nH]c3ccccc23)[C@H]2C[C@@H](NCCNC(C)=O)C[C@@H](c3ccccc3)N21	-3.6%
COCC[C@]1(O)CCN(C(=O)Nc2ccc(F)c(C(F)(F)F)c2)C[C@H]1C	2.8%
COC(=O)c1ccc2nc(CO[C@H]3CN(Cc4cnn(C)c4)C[C@H]3F)[nH]c2c1	4.8%[70.6 µM]
Cn1cc(CN2C[C@H](C(=O)Nc3cccnc3)C[C@H]2c2cccc(C(F)(F)F)c2)cn1	-1.4%[70.6 µM]
Nc1nc(NCCNC(=O)c2ccccc2Cl)cc(C2CC(O)C2)n1 (stereo unspecified)	1.5%
NC(=O)c1cccnc1OC1CCN(CCc2ccccc2)CC1	-12.6%
O=C1CC(c2ccccc2)N(C(=O)CNS(=O)(=O)c2ccc3c(c2)OCCO3)CCCCCN1 (stereo unspecified)	7.4%
Cc1ccoc1-c1nc2ccncc2[nH]1	-12.6%[70.6 µM]
O=C(Cc1cccs1)N1CCc2nn(CC3CC3)c(=O)n2CC1	-10.9%
COCCN1C(=O)c2ccccc2C(C(=O)Nc2ccc(F)cc2)C12CCCC2 (stereo unspecified)	2.2%
COc1ccc(-c2cc(N3CCCC(NC(=O)c4cccn4C)C3)n[nH]2)cc1 (stereo unspecified)	-17.6%
OC1CCOC2(CCNCC2)C1 (stereo unspecified)	-6.9%
CN1CCCN(c2ccc(C(=O)N3CCC(N4CCOCC4)CC3)cn2)CC1	6.9%
Cc1ccc(C(=O)NC(C(=O)N2CCCCC2)C2CCN(C(=O)C(C)C)CC2)cc1 (stereo unspecified)	-4.1%
CCN(CC)C(=O)N1C[C@H](NC(=O)CCc2csc(N)n2)[C@@H](C2CC2)C1	6.3%
CC(=O)N1CCN(c2nc3c(s2)CC(C(=O)NCc2cccc(Cl)c2)CC3)CC1 (stereo unspecified)	-9.8%
O=C1Cc2c(-c3cccc(N4CCOCC4)c3)n[nH]c2CN1Cc1ccccn1	-4.0%[70.6 µM]
CCn1c(CN2CCN(c3nc4ccccc4s3)CC2)nnc1C1CC(N)C1 (stereo unspecified)	4.1%
COc1ccc(C(=O)N2CCCC(CNC(=O)c3ccc(F)cc3)C2)cc1OC (stereo unspecified)	5.3%
COc1ccccc1CNC[C@H]1O[C@@H]2C[C@@H](CC(=O)N3CCC(F)(F)C3)O[C@@H]2[C@@H]1O	8.8%[70.6 µM]
COCCN1C(=O)[C@H]2CN(Cc3cc(F)cc(F)c3)C[C@H]2C1=O	-2.6%

Structures listed above that bear a hit mark in hNpr1 antagonist:
mol	hNpr1 antagonist
COc1ccc(-c2noc(CC3CCN(C(=O)c4cc(Cl)ccc4F)CC3)n2)cc1	7.08µM*

More compounds
mol	hNpr1 antagonist
CCCC1=Nc2cc(C(=O)NCCCN3CCCCC3CC)ccc2Sc2ccc(C)cc21 (stereo unspecified)	-17.7%
NC(=O)C1CCN(CC[C@H]2CN(C(=O)Nc3ccc(C(F)(F)F)cc3)CC[C@H]2CC(=O)O)CC1	5.0%
CC(c1cc2ccccc2[nH]1)N(C)C(=O)C1CCN(CC(N)=O)CC1 (stereo unspecified)	-0.5%
CCC(=O)N1CCc2sc(C(=O)NCc3ccc(Cl)cc3)cc2C1	-29.0%
Cc1nc(N2CCCCCC2)ncc1C(=O)O	-14.9%
O=C(NCc1ccco1)N[C@@H]1CCOC[C@H]1OCc1ccccc1	0.2%
COCCN1C(=O)CS(=O)(=O)C12CCN(C(=O)c1ccc(Cl)cc1)CC2	0.5%
COc1cccc(CCNC(=O)c2c(C)noc2-c2cc(OC)cc(OC)c2)c1	-15.0%
Cc1nc(N2CCCCC2)n(CC(=O)Nc2cccc(Br)c2)c(=O)c1C	3.9%
O=C(Nc1cccc(C(F)(F)F)c1)N[C@@H]1C[C@H](CO)[C@@H](O)[C@H]1O	1.1%[70.6 µM]

An excerpt from above in order of length of the SMILES, highest first:
mol	hNpr1 antagonist
CN(C)c1cccc(C(=O)N2CCCC(n3cc(-c4nc(C5CC5)no4)nn3)C2)c1 (stereo unspecified)	-21.1%
CN1CCCN(c2ccc(C(=O)N3CCC(N4CCOCC4)CC3)cn2)CC1	6.9%
NC(=O)C1(N2CCCCC2)CCN(Cc2cc3n(n2)CCNC3)CC1	6.4%

Assay outcomes: PubChem BioAssay, National Center for Advancing Translational Sciences (NCATS)
